# KCNQ2 block = KCNQ2 channel blockers in CHO-K1 cells – cell-based, FluxOR thallium flux, B-score, primary screen (AID 2156). O88943. 20 min; active compounds read low; only compounds with negative scores are shown here; some inactives read as strong as hits. B-score at 10 µM. 310,000 compounds, 1.1% hits;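 active = fluorescence ratio B-score at most minus 3 library SDs, with starting brightness B-score within 2 library SDs, cut at about -5.5 in these data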
# Target sequence (O88943 whole entry, looked up): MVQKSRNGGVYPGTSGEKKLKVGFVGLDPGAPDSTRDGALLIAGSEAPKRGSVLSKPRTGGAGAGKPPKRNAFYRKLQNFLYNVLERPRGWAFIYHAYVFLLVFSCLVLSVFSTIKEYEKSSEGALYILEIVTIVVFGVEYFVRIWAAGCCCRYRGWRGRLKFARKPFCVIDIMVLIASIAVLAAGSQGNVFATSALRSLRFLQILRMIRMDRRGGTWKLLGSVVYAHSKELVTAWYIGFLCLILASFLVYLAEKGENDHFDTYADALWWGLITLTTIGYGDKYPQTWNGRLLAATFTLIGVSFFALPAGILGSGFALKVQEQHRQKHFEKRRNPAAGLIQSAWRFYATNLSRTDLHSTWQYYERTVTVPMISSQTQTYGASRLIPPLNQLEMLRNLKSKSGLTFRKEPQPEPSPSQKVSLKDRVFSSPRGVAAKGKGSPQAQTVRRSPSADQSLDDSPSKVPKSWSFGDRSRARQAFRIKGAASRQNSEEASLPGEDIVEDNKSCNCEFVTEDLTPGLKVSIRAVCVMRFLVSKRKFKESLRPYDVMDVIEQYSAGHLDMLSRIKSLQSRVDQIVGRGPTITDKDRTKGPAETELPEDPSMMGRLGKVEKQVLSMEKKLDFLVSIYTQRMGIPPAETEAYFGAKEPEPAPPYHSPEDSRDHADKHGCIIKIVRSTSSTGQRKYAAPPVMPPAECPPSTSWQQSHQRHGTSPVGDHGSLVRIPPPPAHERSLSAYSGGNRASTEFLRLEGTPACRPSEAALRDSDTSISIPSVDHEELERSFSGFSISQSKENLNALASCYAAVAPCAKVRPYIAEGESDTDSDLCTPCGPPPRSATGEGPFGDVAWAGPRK
# KCNQ2 block baseline = also measured in KCNQ2 block; calls as there; B-score; measured here: initial fluorescence intensity artifact check;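 brightness before thallium and not channel activity; 0 = typical well and far values either way flag optical interference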
# * hit, by the source's call; i = inactive. Not all compounds are listed; count on the stated rates, not on these rows.
mol | KCNQ2 block baseline | KCNQ2 block
COc1ccc2nc3oc(C(=O)N4CCN(c5cccc(Cl)c5)CC4)cc3cc2c1 | -0.04* | -5.8*
O=C(NCCO)C(=O)NCC1OCCCN1S(=O)(=O)c1cccs1 (configuration not stated) | 1.2 | i
COc1ccc(CCNC(=O)CCC(=O)N2CCOc3ccc(C)cc32)cc1OC | -0.07 | i
Cc1[nH]nc2c1C(c1c[nH]c3ccccc13)C(C#N)=C(N)O2 (configuration not stated) | 1.7 | i
CCc1ccc(C2C3=C(CC(C)(C)CC3=O)Nc3c2c(=O)[nH]c2nc(C)nn32)cc1 (configuration not stated) | -2.5 | i
COc1ccc(-c2cc(C(F)(F)F)nc(NCc3cccs3)n2)cc1 | 2.7 | i
Cc1ccc2oc(C(=O)Nc3nonc3C)c(C)c2c1 | -0.01 | i
CCc1c(C)c2ccc(OCC(N)=O)cc2oc1=O | -1.5 | i
Cc1nc2c(cnn2-c2ccccc2)c(=O)[nH]1 | -0.9 | i
COc1ccc(-c2nc(CSCC(=O)N3CCN(c4cccc(C)c4)C(C)C3)c(C)o2)cc1OC (configuration not stated) | -1.6 | i
CCOc1ccc(CN2CCN(c3cc(C)nc4c5c(C)cc(C)nc5nn34)CC2)cc1 | 0.15 | i
COc1cc(C2=CCN(C(C)=O)CC2)ccc1OC(C)=O | 1.1 | i
Cc1cc(Nc2cccc(C(=O)O)c2)n2ncnc2n1 | -0.66 | i
COC(=O)c1c(C)[nH]c(C)c1-c1ccccc1Cl | -0.36 | i
Nc1nc(-c2cc3c(cc2Cl)OCCO3)cs1 | -0.12 | i
CC(=O)NC1(c2cccc(F)c2)CCN(CC(=O)NC2CCCCC2)CC1 | -1.6 | i
COC(=O)CC1(c2ccccc2)C(=O)c2ccccc2C1=O | -0.6 | i
Cn1c(-n2c(CCCN3C(=O)c4ccccc4C3=O)nc3ccccc3c2=O)nc2ccccc21 | -0.33 | i
O=C(c1cc(COc2c(F)cccc2F)on1)N1CCN(C2CCCCC2)CC1 | 0.85 | i
COCCCNC(=O)CCCn1c(=O)c2ccccc2n(CC(=O)Nc2c(C)cccc2C)c1=O | -1.6 | i

# The last two records of the part above lead into the next:
mol | KCNQ2 block baseline | KCNQ2 block
O=C(c1cc(COc2c(F)cccc2F)on1)N1CCN(C2CCCCC2)CC1 | 0.85 | i
COCCCNC(=O)CCCn1c(=O)c2ccccc2n(CC(=O)Nc2c(C)cccc2C)c1=O | -1.6 | i
CC(C)NC(=O)COC(=O)CNC(=O)c1cc(Cl)cc([N+](=O)[O-])c1 | -0.54 | i
COc1cccc(C(=O)NC2CCCc3ccccc32)c1OC (configuration not stated) | -2.7 | i
O=C(O)c1ccc(Br)cn1 | 5 | i
COc1ccccc1N1C(=O)C2CC(C)=C(C)CC2C1=O (configuration not stated) | 1.9 | i
Cc1cccc(C2c3[nH]c4ccccc4c3CCN2C(=O)c2cc3c([nH]c2=O)CCCC3)n1 (configuration not stated) | -0.7 | i
COc1ccc(Cc2nnc(NC(=O)c3cccc(C)c3)s2)cc1 | -1.6 | i
CCOC(=O)C1=C(C)N(Cc2ccccc2)C(=O)NC1c1ccc(OC)cc1 (configuration not stated) | 1.4 | i
C/C(=N\NC(=O)COc1ccc(C)cc1C(C)C)c1cc2ccccc2o1 | 0.51 | i
COc1ccc(-c2nc(C)sc2CC(=O)O)cc1 | 0.41 | i
COc1ccccc1OCC(=O)NNC(=O)c1cccs1 | -0.61 | i
Cc1cc(NC(=O)C2CC=CCC2C(=O)O)no1 (configuration not stated) | 0.06 | i
c1ccc(CN2CCN(c3nc(N4CCOCC4)c4ccccc4n3)CC2)cc1 | -0.48 | i
Cc1ccc2cc(CN(CCc3ccccc3)C(=S)NCCCN(C)C)c(=O)[nH]c2c1 | 0.15 | i
CCOC(=O)C[C@H]1c2cc(F)ccc2S(=O)(=O)N1C(C)C | -0.01 | i
CCOn1c(=O)c(-c2cc3ccccc3o2)[n+]([O-])c2ccccc21 | -1.2 | i
COc1ccc(Br)cc1C1SCCN1S(C)(=O)=O (configuration not stated) | -1.2 | i
COc1ccc([C@@H]2[C@@H]3C(=O)N(C(C)(C)C)C(=O)[C@@H]3[C@]3(CC(C)C)C(=O)N(c4ccc(C(F)(F)F)cc4)C(=O)N23)cc1 | 0.45 | i
CCOc1ccc(-c2cc(C(=O)NCCCn3ccnc3)c3cc(Br)ccc3n2)cc1 | 1.1 | i
Cc1ccsc1/C=N/NC(=O)Cn1nc(C)c([N+](=O)[O-])c1C | 0.04 | i
O=C(Oc1cccnc1)c1ccc([N+](=O)[O-])cc1Cl | 0.59 | i
Cc1sc2nc(CN3CCCC3)nc(Cl)c2c1C | -1.2 | i
CCOC(=O)C(Cc1ccc(O)cc1)NC(=O)CNC(=O)C1CCCN1C(=O)OC(C)(C)C (configuration not stated) | -0.98 | i
CCOc1ccc(S(=O)(=O)N(C)C)cc1-c1nc2c(C(C)(C)C)nn(C)c2c(=O)[nH]1 | 0.97 | i
Cc1ccc(C(=O)N2CCN(S(=O)(=O)c3ccc(C(C)C)cc3)CC2)s1 | -1.2 | i
Cc1nc(N2CCN(Cc3ccc4c(c3)OCO4)CC2)nc2c1C(=O)CC(c1ccco1)C2 (configuration not stated) | 1.8 | i
CCc1nnc(NS(=O)(=O)c2ccc(NCc3cc(Cl)cc(Cl)c3O)cc2)s1 | -0.55 | i
CC(C)C(=O)NC(=S)Nc1ccc(S(=O)(=O)NC2CCCCC2)cc1 | 0.41 | i
OCCN1CCN(C2Cc3cc(Cl)ccc3Sc3ccc(Cl)cc32)CC1 (configuration not stated) (tested in a mixture with another compound) | -2 | i
CCCN(c1ccccc1C(=O)O)S(=O)(=O)c1ccc2c(c1)n(C)c(=O)n2C | 1.3 | i
CC(C)OP(=O)(c1ccccc1)c1ccccc1 | 0.77 | i
CCOC(=O)c1sc(N(Cc2ccccc2)C(=O)COC(=O)c2ccccc2O)nc1C | -0.96 | i
Oc1c(Cl)cc(Cl)cc1CNc1ccc(Br)cn1 | -1.6 | i
CCOC(=O)N1CCN(C(=O)c2c[nH]c3ccc(S(=O)(=O)N(C)c4cccc(C)c4)cc3c2=O)CC1 | 0.77 | i
CCOC(=O)c1sc(=S)n(-c2cccc(C(F)(F)F)c2)c1SC | 0.84 | i
C=CCOc1ccccc1CN1CCC(n2nccc2NC(=O)C2CC2)CC1 | 0.36 | i
CC(C)CCSc1nc2c(c(=O)[nH]c(=O)n2C)n1CCc1ccccc1 | -1 | i
CCCNC(=O)CCc1c(C)nc2c(c(C)nn2-c2ccccc2)c1C | -0.81 | i
Cc1ccc(-c2nn(-c3ccccc3)cc2C(=O)OCC(=O)Nc2ncc(Cl)cc2Cl)cc1 | -1.8 | i
C=CCc1cccc(C=Nc2ccc(Br)cc2)c1O | 0.31 | i
COc1ccc(/C=N/NC(=O)c2ccc(CSc3nc(C)cc(C)n3)cc2)cc1O | 1.8 | i
CCOC(=O)N1CCN(C(=O)C2CCN(S(=O)(=O)c3ccc(Cl)cc3)CC2)CC1 | 1.2 | i
C=CCOc1ccc(CNC(C)(C)CO)cc1OCC | 2.9 | i
CC(C)N1C(=O)/C(=C/c2nc3ccccc3c(=O)n2-c2ccccc2)c2ccccc21 | -1 | i
COc1ccccc1CNC(=O)CCCNC(=O)Cn1cnc2sc(C)c(C)c2c1=O | 1 | i
CCOC(=O)C1=C(C)NC(SCc2cc(=O)[nH][nH]2)=C(C#N)C1c1cccs1 (configuration not stated) | -0.88 | i
COc1ccc(S(=O)(=O)NNC(=O)C23CC4CC(CC(C4)C2)C3)cc1 | 0.91 | i
Cc1ccccc1-c1ccc(=O)n(CC(=O)Nc2ccc(S(=O)(=O)N(C)C)cc2)n1 | 1.3 | i
NC(=O)N\N=C/C=C/C=C/c1ccc(F)cc1 | -0.15 | i
COc1cccc(NC(=O)c2ccc(-c3ccc([N+](=O)[O-])cc3)o2)c1 | -1.9 | i
COc1ccc(NC(=O)c2cc([N+](=O)[O-])ccc2N2CCN(C)CC2)cc1 | 0.03 | i
CC1=C(C(=O)Nc2ccccc2F)C(c2cccs2)NC(=S)N1 (configuration not stated) | 0.04 | i
CCOc1ccccc1CN1CCN(Cc2ccc3cccc(OC)c3n2)CC1CCO (configuration not stated) | -1.1 | i
COc1ccccc1CN1CC(=O)N2CSC[C@H]2C1=O | 2.1 | i
CCCOc1ccc(NC(=O)C2CC(=O)N/C(=N/N=C(\C)CCc3ccc4c(c3)OCO4)S2)cc1 (configuration not stated) | -1.4 | i
NS(=O)(=O)c1cc2c(cc1Cl)NCNS2(=O)=O | -0.88 | i
CN1C2CCC1CC(OC(=O)c1c[nH]c3ccccc13)C2 (configuration not stated) | 0.95 | i
CC(=O)NC1CCN(C(=O)N2CCCC2)CC1 | 1.4 | i
O=S(=O)(c1ccc(F)cc1)N(CCO)CC(O)Cn1c2ccccc2c2ccccc21 (configuration not stated) | -1.4 | i
CCOC(=O)c1cccc(NC(=O)CSc2nnc(COc3ccc(Cl)cc3)o2)c1 | 0.93 | i
O=C(NCN1CCc2ccccc2C1)c1ccccc1 | 1 | i

# (further entries)
mol | KCNQ2 block baseline | KCNQ2 block
O=C(COC(=O)c1ccncc1)NCCCc1ccccc1 | 2.9 | i
O=C(NCCSCc1ccco1)c1ccc(=O)[nH]c1 | 0.69 | i
Cc1ccc(N/C=C2\CCCCC2=O)c(C)c1 | 0.42 | i
O=C(Nc1ncccn1)C1CCCCC1 | -0.64 | i
CCNC(=S)NNC(=O)c1cccnc1 | 0.09 | i
O=C(NC(NC1CCS(=O)(=O)C1)C(Cl)(Cl)Cl)c1ccc(Br)cc1 (configuration not stated) | -0.65 | i
CNC(=O)CSc1nnc(-c2ccc3c(c2)OCO3)n1C | 2.8 | i
CCCn1c(N)c(N(CCOC)C(=O)c2cc3c(s2)CCCCC3)c(=O)[nH]c1=O | 2.2 | i
CCCC(C(=O)NC1CCCC1)N(CCN(CC)CC)C(=O)c1snc(C(N)=O)c1N (configuration not stated) | 0.38 | i
Cc1ccc(O)c(C(=O)c2cnn(C(=O)COc3ccc(Cl)cc3)c2)c1 | -1.1 | i
CCOc1ccccc1NC(=O)CCCN1C(=S)NC(C)(C)CC1C (configuration not stated) | -1.6 | i
C=C(C)c1cccc(C(C)(C)NC(=O)Nc2ccc(C(C)=O)cc2)c1 | 0.03 | i
COc1ccc(NC(=O)C2CC(c3c(F)cccc3Cl)=NO2)cc1 (configuration not stated) | -0.1 | i
CC[C@@]12C(=O)N(c3cccc(F)c3)C(=O)N1[C@H](c1ccc(F)cc1)[C@@H]1C(=O)N(C3CCCCC3)C(=O)[C@@H]12 | -0.11 | i
COc1ccc(Cl)cc1NC(=O)c1cnc2sccn2c1=O | 2.5 | i
COc1ccc(C(=O)N2CCCC(CNC(=O)c3ccccc3Cl)C2)o1 (configuration not stated) | -0.32 | i
COc1cc2c(cc1OC)CN(CC(=O)Nc1ccc(Cl)c(S(=O)(=O)N(C)C)c1)CC2 | -2.1 | i
CC1(C)Cc2c(c(N3CCCC3)[nH]c(=S)c2C#N)CO1 | 2 | i
C=CCNC(=O)NC(=O)c1csc([N+](=O)[O-])c1 | 0.45 | i
CCCCN(C(=O)c1cccc(S(=O)(=O)N2CC(C)OC(C)C2)c1)c1c(N)n(CCCC)c(=O)[nH]c1=O (configuration not stated) | 2.9 | i

# Part of the list above, field by field:
> COC(=O)c1c(C)[nH]c(C)c1-c1ccccc1Cl
  KCNQ2 block baseline: -0.36
  KCNQ2 block: i

> Nc1nc(-c2cc3c(cc2Cl)OCCO3)cs1
  KCNQ2 block baseline: -0.12
  KCNQ2 block: i

> CC(=O)NC1(c2cccc(F)c2)CCN(CC(=O)NC2CCCCC2)CC1
  KCNQ2 block baseline: -1.6
  KCNQ2 block: i

> COC(=O)CC1(c2ccccc2)C(=O)c2ccccc2C1=O
  KCNQ2 block baseline: -0.6
  KCNQ2 block: i

# Remaining list, next part:
mol | KCNQ2 block baseline | KCNQ2 block
O=C(Nc1c2c(nc3c1CCC3)CCCC2)c1ccccn1 | 1.3 | i
Cc1ccccc1NS(=O)(=O)c1cc(C(=O)Nc2cccnc2)ccc1C | 0.47 | i
O=C(Nc1cccnc1)/C(N=Nc1cccnc1)=C(\O)c1ccccc1 | 0.12 | i
Cc1ccc(S(=O)(=O)N(C)CC(=O)OCc2nnc(-c3ccccc3)o2)cc1 | -0.34 | i
Cc1ccc(-c2nn(CC(=O)O)c(=O)c3ccccc23)cc1 | 2.2 | i
COc1ccc(CNC(=O)C2CC(c3ccc(F)cc3)=NO2)cc1 (configuration not stated) | -0.01 | i
CSC1=NSC2=NC(=O)/C(=C/c3coc4ccc(O)cc4c3=O)C(=N)N12 | 47 | i
CCCn1c2c(c(O)c(C(=O)Nc3ccc(OC)cc3)c1=O)CCCC2 | -1.9 | i
Cc1sc(NC(=O)c2ccc(Br)s2)c(C(N)=O)c1C | 1.8 | i
CCOC(=O)c1ccc(Nc2cc(C)nc3ncnn23)cc1 | 0.42 | i
CC(C)c1ccc(NC(=O)c2snc3ccc(Cl)cc23)cc1 | -0.37 | i
CC1CCc2c(sc(NC(=O)C3c4ccccc4Oc4ccccc43)c2C(N)=O)C1 (configuration not stated) | -0.13 | i
CC(=O)Cc1nsc(Nc2ccc(C)cc2)n1 | 0.92 | i
COc1cc(/C=C2\SC(=O)NC2=O)ccc1OCc1ccc(Cl)nc1 | 1.4 | i
COc1ccc(C2CC2/C(C)=N/OC(=O)c2cccs2)cc1 (configuration not stated) | 0.09 | i
COc1cc2c(cc1OC)C(c1ccc(-c3ccccc3Cl)o1)=NCC2 | 0.8* | -8.3*

# A different layout for 3 compounds above:
KCNQ2 block baseline,KCNQ2 block,Structure
0.42,i,CCOC(=O)c1ccc(Nc2cc(C)nc3ncnn23)cc1
0.09,i,COc1ccc(C2CC2/C(C)=N/OC(=O)c2cccs2)cc1 (configuration not stated)
-0.34,i,Cc1ccc(S(=O)(=O)N(C)CC(=O)OCc2nnc(-c3ccccc3)o2)cc1

# Compound activity: PubChem, Johns Hopkins Ion Channel Center
